Bioassay records deposited in PubChem BioAssay by several laboratories.
LANA-H2B inh = blocks KSHV LANA binding to histone H2A/H2B. hit rate 0.6% among 320,000. inhibition, % (test concentration not listed). Q9QR71. cell-free LANA-H2A/H2B peptide, fluorescence polarization; in the data active means inhibition mostly above about 10%, no sharp cut-off; inactive means mostly below about 6.7%;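 further: stock transfer was 7.5 nL into about 10 µL; 0% = median of vehicle wells and 100% = median of positive control wells; one replicate is shown; the record names a cut of 25% in any replicate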
Target sequence (Q9QR71 whole entry, looked up): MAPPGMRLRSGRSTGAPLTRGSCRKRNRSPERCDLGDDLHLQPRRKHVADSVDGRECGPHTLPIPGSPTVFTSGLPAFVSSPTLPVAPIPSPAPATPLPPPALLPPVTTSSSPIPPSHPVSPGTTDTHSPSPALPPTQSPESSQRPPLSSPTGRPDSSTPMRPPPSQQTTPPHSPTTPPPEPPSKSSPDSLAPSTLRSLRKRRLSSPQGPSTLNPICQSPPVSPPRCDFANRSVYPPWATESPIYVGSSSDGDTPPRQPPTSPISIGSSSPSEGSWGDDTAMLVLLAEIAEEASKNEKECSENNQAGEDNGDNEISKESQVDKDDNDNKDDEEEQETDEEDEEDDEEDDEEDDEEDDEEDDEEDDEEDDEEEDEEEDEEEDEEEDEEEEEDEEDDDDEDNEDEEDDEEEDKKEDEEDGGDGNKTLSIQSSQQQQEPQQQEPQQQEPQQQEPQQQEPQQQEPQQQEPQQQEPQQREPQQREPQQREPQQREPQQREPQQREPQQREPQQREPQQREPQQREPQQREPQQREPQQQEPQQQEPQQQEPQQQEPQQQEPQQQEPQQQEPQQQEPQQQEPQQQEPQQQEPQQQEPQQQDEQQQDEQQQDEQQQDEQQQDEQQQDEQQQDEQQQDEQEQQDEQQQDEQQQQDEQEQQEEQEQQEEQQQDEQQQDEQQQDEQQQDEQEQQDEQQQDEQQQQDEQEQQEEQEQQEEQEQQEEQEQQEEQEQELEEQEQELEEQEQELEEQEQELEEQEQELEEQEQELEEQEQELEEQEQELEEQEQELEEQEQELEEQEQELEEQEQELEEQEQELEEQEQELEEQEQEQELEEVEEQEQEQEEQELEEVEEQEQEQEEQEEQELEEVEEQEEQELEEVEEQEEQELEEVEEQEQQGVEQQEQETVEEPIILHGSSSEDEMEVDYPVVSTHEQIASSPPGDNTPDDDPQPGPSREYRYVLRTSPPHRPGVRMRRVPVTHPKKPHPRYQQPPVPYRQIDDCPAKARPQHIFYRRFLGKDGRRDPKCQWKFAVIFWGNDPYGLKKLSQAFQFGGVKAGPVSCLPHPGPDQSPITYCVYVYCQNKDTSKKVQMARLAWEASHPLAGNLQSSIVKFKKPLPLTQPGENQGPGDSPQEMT
Beta2AR agonist = activates human beta-2 adrenergic receptor causing internalization | P07550 | Am2.2-beta2AR cells, FAP receptor internalization, flow cytometry; reference of the scale not given here | response, % (test concentration not listed) | hit rate 0.43% among 340,000 | AID 504454;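 active means response above a set limit, near 3 SD of response in nonfluorescent compounds, cut at about 42% in these data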;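 further: stock transfer was 100 nL into about 11 µL; a reference agonist was the positive control; negative values mostly stem from fluorescent compounds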
Ecoli growth = inhibitors of Escherichia coli growth | OD600, 23 h; stronger effect = lower value | OD600 absorbance (no concentration beside the values) | AID 1053175 | hit rate 0.21% among 330,000;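 active means OD600 absorbance below the run mean of sample wells minus 3.6 SD, in any replicate, cut at about 0.56 in these data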;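 further: stock transfer was 300 nL into about 60 µL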
FGF22 binding = shifts melting point of recombinant human FGF22. calls only at 9.99 µM. AID 651658. hit rate 1.5% among 340,000. recombinant FGF22 thermal shift, SYPRO orange fluorescence; percent of sucrose octasulfate shift, DMSO zero;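 active means melting point raised past a set limit in the mean and every replicate; inconclusive means no clear call; three in four hits are not shown here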
UCH37 inh = inhibitors of human deubiquitinating enzyme UCH37. purified proteasome/UCH37, Ub-AMC cleavage fluorescence. hit rate 0.33% among 330,000. Q9Y5K5. AID 588478. inhibition, % (no concentration beside the values);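 active means mean of two replicates above 20%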;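 further: 0% = compound-free wells with enzyme and 100% = wells lacking proteasome; stock transfer was 100 nL into about 20 µL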
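Material: Human UCH37 enzyme supplied as purified proteasome complex | Schedule: 30 min preincubation with enzyme, 25 min cleavage at room temperature | Detection: AMC fluorescence 355/460 nm | Measure: % inhibition of Ub-AMC cleavage fluorescence | Controls: Wells without proteasome as full block, compound-free enzyme plus substrate as uninhibited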
ALR H2O2 inh = inhibitors of human sulfhydryl oxidase ALR; purified ALR, DTT oxidation, H2O2 HRP-luminol luminescence; inhibition, % (concentration not given with the values); hit rate 3.8% among 290,000; AID 485317;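 active means mean and each replicate at 75% or more; inconclusive means only one of the two met; inactive means neither met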;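 further: stock transfer was 7.5 nL into about 7.5 µL; 0% = neutral wells and 100% = wells with inactivated enzyme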
HNF4A DNA FP = change in binding of human HNF4 alpha to DNA. P41235. HNF4a-FITC DNA binding, fluorescence polarization, 1 h. activity change, % at 10 µM. hit rate 0.3% among 360,000; in the data active means activity change above about 30%, passing the limit was not always enough;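 further: controls were the assay level and a saturating level of protein; the project sought stronger binding though the title names inhibitors; some compounds called inactive have numbers as strong as hits; positive values seem to mean higher polarization but the record does not say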
* marks the source's active call; other numbers are inactive results; i = inactive; ? = inconclusive; . = no result given.

LANA-H2B inh | Beta2AR agonist | Ecoli growth | FGF22 binding | UCH37 inh | ALR H2O2 inh | HNF4A DNA FP | SMILES
0.0 | 3 | 0.68 | i | 4.3 | -5 | -5.9 | ClCc1cc2ccccc2nc1Cl
-2.7 | 5 | 0.59 | i | -0.5 | -2 | 5.0 | COc1ccc(NC(=S)Nc2cccc(C(F)(F)F)c2)c(C)c1
3.5 | 2 | 0.71 | i | 4.7 | -1 | 1.6 | CCCn1nc(C(=O)OCC(=O)c2c(N)n(C)c(=O)n(C)c2=O)c2ccccc2c1=O
2.2 | 1 | . | i | -0.2 | -2 | -0.4 | O=C1C2C(c3cccc(/C=C/c4ccccc4)c3)CC=CC2C(c2ccc3ccccc3c2)N1Cc1ccccc1 (centres undefined)
6.8 | -1 | 0.7 | i | 3.6 | 11 | -2.3 | CC(C)NC(=O)CCCc1cn(C)c2ccccc12
4.0 | -8 | . | i | . | -52 | 1.6 | COc1ccc(Cc2nc3ccccc3n2CC(=O)N/N=C/c2ccccc2)cc1OC
-1.3 | -3 | 0.76 | . | 5.8 | 89* | 1.9 | COc1ccccc1OCC(=O)NNC(=S)NC(=O)c1ccco1
-0.3 | -4 | . | i | 3.0 | 10 | -16 | Cc1ccc(S(=O)(=O)N2[C@@H](c3cccc(Cl)c3)C(C(=O)O)=CC[C@H]2c2ccc(C(C)C)cc2)cc1
2.5 | 0 | 0.76 | i | 7.8 | 33 | 0.7 | Cc1nc2ccc(S(=O)(=O)NC(C(=O)N3CCCCCC3)C(C)C)cc2s1 (centres undefined)
-0.4 | 2 | 0.7 | . | 4.4 | 5 | -1.9 | CCNC(=S)NS(=O)(=O)c1ccc(Cl)cc1
7.1 | 5 | 0.75 | i | 4.7 | 47 | 0.9 | CCOC(=O)C1CCN(C(c2cccs2)c2sc3nc(C)nn3c2O)CC1 (centres undefined)
2.3 | 11 | 0.7 | i | -0.1 | -7 | -4.8 | O=C(NCc1ccc(F)cc1)c1cnn2ccccc12
-0.1 | -17 | 0.68 | i | 3.5 | -4 | -0.8 | CCOC(=O)Cn1c(=O)c2c(nc3n2CCCCN3c2ccc(OCC)cc2)n(C)c1=O
0.1 | -31 | 0.57 | . | -0.8 | -10 | 25 | O=C(Nc1ccc2c3c(cccc13)CC2)c1ccco1
11 | -3 | 0.68 | i | 2.3 | 0 | 0.5 | CCC(CC)c1nnc(NC(=O)c2cccc(S(=O)(=O)N3CCOCC3)c2)s1
2.3 | 0 | 0.67 | . | 5.1 | -9 | 0.3 | C=CCNC(=O)C1CC(=O)N(c2ccc(OCC(=O)Nc3cccc(OC)c3)cc2)C1 (centres undefined)
-5.2 | -4 | 0.71 | i | 2.9 | 0 | -2.2 | CC(=O)N1c2c(cc(Br)cc2S(=O)(=O)NCc2ccc(C)cc2)CC1C (centres undefined)
0.1 | -8 | . | i | . | -7 | -5.6 | CC(C)/C=C/CN1CCC(Oc2ccc(C(=O)N3CCCC3)cc2)CC1
0.9 | -3 | 0.59 | . | -33 | -15 | -2.2 | Cc1cc(N2CCCN(C)CC2)nc2cc(Cl)ccc12
-0.2 | -3 | 0.75 | i | 1.4 | 0 | -2.5 | CC(OC(=O)c1ccc(OCC2CCCO2)cc1)C(=O)N(C)Cc1ccccc1 (centres undefined)

An excerpt from above in order of their number in LANA-H2B inh, falling:
LANA-H2B inh | Beta2AR agonist | Ecoli growth | FGF22 binding | UCH37 inh | ALR H2O2 inh | HNF4A DNA FP | SMILES
4.0 | -8 | . | i | . | -52 | 1.6 | COc1ccc(Cc2nc3ccccc3n2CC(=O)N/N=C/c2ccccc2)cc1OC
0.1 | -8 | . | i | . | -7 | -5.6 | CC(C)/C=C/CN1CCC(Oc2ccc(C(=O)N3CCCC3)cc2)CC1
-0.3 | -4 | . | i | 3.0 | 10 | -16 | Cc1ccc(S(=O)(=O)N2[C@@H](c3cccc(Cl)c3)C(C(=O)O)=CC[C@H]2c2ccc(C(C)C)cc2)cc1

(continued)
LANA-H2B inh | Beta2AR agonist | Ecoli growth | FGF22 binding | UCH37 inh | ALR H2O2 inh | HNF4A DNA FP | SMILES
4.1 | 3 | . | . | . | . | 0.9 | CCN(CCCn1c(=S)[nH]c2ccc(N3CCOCC3)cc2c1=O)c1ccccc1
-0.7 | 8 | 0.67 | . | -7.4 | 2 | -2.4 | CCN(CC)S(=O)(=O)c1ccc2[nH]cc(C(=O)NCCN3CCCCCC3)c(=O)c2c1
-1.4 | 3 | 0.66 | . | 3.4 | -2 | 3.5 | COc1cc(C(=S)N2CCOCC2)ccc1OC(=O)c1cc([N+](=O)[O-])cc([N+](=O)[O-])c1
4.7 | 8 | 0.69 | i | 4.3 | -10 | -1.2 | CC1CCCN(C(=O)c2ccc(Br)c(S(=O)(=O)N3CCOCC3)c2)C1 (centres undefined)
2.2 | -6 | 0.73 | i | -1.4 | 3 | 0.3 | CCc1cc2c(SCC(=O)NCC3CCCO3)ncnc2s1 (centres undefined)
-4.7 | 1 | 0.7 | i | 0.2 | -27 | -0.3 | Oc1cccc(C2c3[nH]c4ccccc4c3CCN2Cc2cnn(-c3ccccc3)c2)c1 (centres undefined)
-9.2 | 2 | 0.66 | . | 2.9 | 100* | -3.9 | COc1ccc(-c2nc(=S)[nH][nH]2)cc1OC
-4.9 | 20 | 0.81 | . | 2.3 | -3 | 0.0 | O=C1C2C3C=CC(C2C(=O)N1C1CCCCC1)C1C(=O)N(C2CCCCC2)C(=O)C31 (centres undefined)
4.5 | -1 | 0.7 | i | 4.7 | -17 | 1.1 | Cc1ccc(S(N)(=O)=O)c(C)c1-n1cnnn1
1.3 | -3 | 0.65 | i | -19 | -12 | 5.7 | CN(C(=O)COC(=O)c1cc2ccccc2oc1=O)C1CCCCC1
4.1 | 6 | 0.67 | i | 0.8 | 18 | -2.5 | Cc1ccc(NC(=O)c2ocnc2C)cc1Cl
3.4 | -3 | 0.67 | i | 1.5 | -21 | 2.6 | Cc1ccccc1NC(=O)CN1C(=O)CSc2ccccc21
6.7 | 0 | 0.7 | i | -3.1 | . | -1.5 | CC12CCC(C(=O)Nc3ccccc3Cl)([C@H](Br)C1=O)C2(C)C (some centres undefined)
-6.7 | -1 | 0.68 | . | -1.5 | -8 | 3.8 | Cc1nnc(NC(=O)c2ccc3ccccc3c2)o1
-0.9 | -3 | 0.71 | i | 4.6 | 0 | -0.6 | O=C(O)CSc1nnc(NC(=O)CN2CCOCC2)s1
9.0 | 11 | 0.71 | . | -2.2 | . | 4.8 | O=C1Nc2cc(C(=O)N3CCN(Cc4ccccc4)CC3)ccc2SC1N1CCOCC1 (centres undefined)
0.2 | -6 | 0.7 | i | -0.6 | -15 | -1.0 | CC(C)(C)OC(=O)NC1CONC1=O (centres undefined)
5.7 | 6 | 0.65 | i | 6.1 | -3 | -1.3 | CS(=O)(=O)N1CCN(Cc2cc(=O)n3ccsc3n2)CC1
3.1 | 8 | 0.71 | . | 6.7 | 5 | -1.2 | CC(=O)c1ccc(NS(=O)(=O)c2ccc(C)cc2)cc1
7.7 | -3 | 0.7 | i | 2.6 | -9 | 2.0 | Cc1ccccc1NC(=O)CSCc1cc(=O)n2ccsc2n1
-1.7 | 1 | 0.74 | . | -3.9 | 8 | 1.3 | CCC1CCc2c(sc3nc(SCC(=O)NCc4ccco4)n(-c4ccccc4)c(=O)c23)C1 (centres undefined)
2.9 | 10 | . | . | 1.3 | -9 | -2.7 | Cc1ccc(NC(=O)/C(C#N)=C/c2cc(C)n(-c3ccc(N4CCOCC4)c([N+](=O)[O-])c3)c2C)c(C)c1
-2.3 | -2 | 0.6 | i | -2.0 | -19 | -4.0 | COc1cccc(CCc2nnc(CCC(=O)N3CCCC3c3nccs3)o2)c1 (centres undefined)
-1.5 | . | 0.68 | i | 1.2 | . | . | CC1=C(C(=O)OCc2ccccc2)C(c2ccccc2OS(=O)(=O)c2ccccc2[N+](=O)[O-])NC(=O)N1CCCC(=O)O (centres undefined)
-3.6 | -10 | 0.74 | . | 3.3 | 0 | 3.2 | CCn1cc(C(=O)NCC2CCCO2)c(=O)c2cc(S(=O)(=O)N3CCCCCC3)ccc21 (centres undefined)
0.5 | 3 | . | i | . | ? | 0.6 | CC(=O)Nc1ccc(NC(=O)C(C)OC(=O)CSCc2cccc(Cl)c2)cc1 (centres undefined)
-2.5 | 3 | 0.63 | i | 0.2 | 35 | -0.7 | COc1ccc(-c2cc(-c3cc(F)ccc3O)[nH]n2)cc1OC
5.6 | 3 | 0.76 | i | 5.8 | -1 | 0.1 | CC(C)(C)OC(=O)N[C@H](C(=O)OC(C)(C)C)c1ccc(Br)cc1
-1.0 | 0 | 0.72 | . | -1.8 | -1 | 1.7 | CC(C)CN(Cc1cc2ccccc2[nH]c1=O)C(=O)c1cccnc1
5.4 | 8 | 0.72 | . | -0.3 | -1 | -1.8 | N#CCCn1c(SCC(=O)N2CCN(S(=O)(=O)c3ccccc3)CC2)nc2ccccc21
-2.9 | -17 | 0.69 | . | -38 | . | -1.4 | COc1ccc(-c2nc3nc(C)cc(C)n3n2)cc1
1.1 | -15 | 0.68 | i | 1.3 | 6 | 0.2 | CCC(=O)NC(=S)Nc1cccc(NC(=O)c2ccco2)c1
4.4 | 2 | 0.71 | i | 2.6 | -3 | 5.2 | COc1ccc(NC(=O)CN(C)C(=O)CCc2ccccc2)cc1
3.8 | -3 | 0.67 | i | -2.1 | -11 | -1.5 | c1ccc2c(c1)nc(-c1ccncc1)n2CCNc1nc(CN2CCCCC2)cs1
1.3 | -6 | 0.72 | . | -1.1 | -44 | -0.4 | COC(=O)c1c(C(=O)OC)c2oc3ccccc3n2c1Cl
1.6 | 4 | 0.69 | . | -18 | -5 | 7.8 | Cc1ccccc1NC(=S)N(CCCN1CCOCC1)Cc1cccs1
5.3 | -13 | 0.63 | i | 4.2 | -8 | -1.9 | O=C(Nc1cccc(N2C(=O)C3C4C=CC(C4)C3C2=O)c1)c1cccs1 (centres undefined)
0.4 | 3 | 0.68 | i | 3.8 | . | 0.5 | Cc1ccc(C(=O)CNc2ccc(Cl)cc2)cc1
1.3 | -3 | 0.69 | i | 1.3 | -8 | -0.4 | O=C(c1ccc(F)cc1)N1CCC(C(=O)N2CCN(S(=O)(=O)c3cccc(F)c3)CC2)CC1
4.5 | 12 | 0.73 | i | -368 | 29 | -1.9 | COc1ccc(C2CC(c3ccccc3O)=NN2c2ccccc2)cc1 (centres undefined)

Record cards (already shown). Order of values: LANA-H2B inh	Beta2AR agonist	Ecoli growth	FGF22 binding	UCH37 inh	ALR H2O2 inh	HNF4A DNA FP
Results for COc1ccc(NC(=O)CN(C)C(=O)CCc2ccccc2)cc1 : 4.4	2	0.71	i	2.6	-3	5.2
Results for ClCc1cc2ccccc2nc1Cl : 0.0	3	0.68	i	4.3	-5	-5.9
Results for O=C(Nc1ccc2c3c(cccc13)CC2)c1ccco1 : 0.1	-31	0.57	.	-0.8	-10	25
Results for CCn1cc(C(=O)NCC2CCCO2)c(=O)c2cc(S(=O)(=O)N3CCCCCC3)ccc21 (centres undefined) : -3.6	-10	0.74	.	3.3	0	3.2
Results for CC1CCCN(C(=O)c2ccc(Br)c(S(=O)(=O)N3CCOCC3)c2)C1 (centres undefined) : 4.7	8	0.69	i	4.3	-10	-1.2

(cont.)
LANA-H2B inh | Beta2AR agonist | Ecoli growth | FGF22 binding | UCH37 inh | ALR H2O2 inh | HNF4A DNA FP | SMILES
0.2 | -1 | 0.72 | . | -1.8 | -1 | 1.2 | COc1cccc(N2C(=O)c3ccncc3C2=O)c1
2.8 | -12 | 0.69 | i | 1.2 | . | -0.6 | O=C(NCCn1cccn1)c1ccc(OC2CCN(CCc3ccccc3)CC2)cc1
2.3 | -5 | 0.69 | i | 3.4 | -3 | 0.7 | CCCCC(c1nnnn1CS(=O)(=O)c1ccc(C)cc1)N1CCN(C)CC1 (centres undefined)
6.7 | 2 | 0.66 | i | 2.8 | -3 | 3.0 | O=C(NNS(=O)(=O)c1ccccc1[N+](=O)[O-])c1ccncc1
-2.1 | 10 | 0.69 | i | 4.0 | 0 | 1.1 | CN(C)c1cccc(N(C)C)c1CNC(=O)NC(=O)c1c(F)cccc1F

These rows are one share of the data, so the mix of outcomes need not match the whole.
